# StopGo reporter: FMDV 2A StopGo reporter, luciferase signal; Potency, µM (highest dose often 57.9 µM), for inactives: at the top dose signal change, negative = less light; 410,000 compounds, 1.2% hits; human cells with a luciferase reporter of 2A StopGo recoding; control for the full effect not named in the record; active = well fitted falling curve with a large enough effect; inconclusive = small, poorly fitted or top-dose-only effect; inactive = no such curve, though single readings can be large or run the other way; tested in HEK293T cells; note: % is set by controls: 0 for no effect and ±100 for the full control effect; nearly all actives have a fitted effect of over 45% in size; luciferase light after 4 h
# LASV entry inh: Lassa virus entry inhibition; Lassa virus pseudotype entry inhibition, cell reporter; control for the full effect not named in the record; 300,000 compounds, 1.2% hits; Potency, µM (series often up to 37.9 µM), without a hit: at the top dose activity change, negative = inhibition, usual class: inhibitors; AID 540256; active means well fitted inhibition curve with a large enough effect; inconclusive means small, poorly fitted or top-dose-only effect, or effect the other way; inactive means flat fitted curve, though single readings scatter; tested in HEK293 cells; note: % is set by controls: 0 for no effect and ±100 for the full control effect; nearly all actives have a fitted effect of over 50% in size; luciferase read-out
# Cruzain noTriton: cruzain (T. cruzi) inhibition without detergent. P25779. purified cruzain, Z-FR-AMC fluorescence, no detergent. Potency, µM, for inactives: max response, negative = inhibition, hits mostly inhibitors. 200,000 compounds, 2.3% hits. AID 1476;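 note: plate controls were enzyme without inhibitor for no effect and buffer without enzyme for full effect; nearly all actives have a fitted effect of over 40% in size; top concentration of the series not given in the record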
# Target sequence (P25779 123-467 limits assumed): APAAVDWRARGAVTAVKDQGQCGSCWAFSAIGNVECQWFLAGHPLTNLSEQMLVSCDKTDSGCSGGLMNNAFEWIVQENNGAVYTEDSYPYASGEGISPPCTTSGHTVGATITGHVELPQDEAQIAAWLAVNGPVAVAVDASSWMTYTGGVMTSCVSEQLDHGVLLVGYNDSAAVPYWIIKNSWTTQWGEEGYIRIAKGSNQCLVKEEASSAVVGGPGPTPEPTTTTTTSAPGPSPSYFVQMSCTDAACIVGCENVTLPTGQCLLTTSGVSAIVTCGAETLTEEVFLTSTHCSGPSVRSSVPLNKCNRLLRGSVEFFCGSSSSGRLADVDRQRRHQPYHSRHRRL
#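 Detergent-free condition (0.00005% Triton X-100) in acetate buffer pH 5.5 with DTT. 1.5 nM enzyme and compound were pre-mixed 15 min, then 2 uM Z-FR-AMC substrate added; reaction progress from fluorescence change between first and third reads (60 s).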
# RE007 growth inh: less growth of the S. pombe RE007 Vpr strain; S. pombe RE007 Vpr strain, BacTiter-Glo ATP luminescence, 24 h; control for the full effect not named in the record; Potency, µM (top dose mostly 92.2 µM), for the others: at the highest dose activity change, negative = less growth; 360,000 compounds, 0.21% hits; AID 651644; active = well fitted falling curve with a large enough effect; inconclusive = small, poorly fitted or top-dose-only effect; inactive = no such curve, though single readings can be large or run the other way;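 note: % is set by controls: 0 for no effect and ±100 for the full control effect; nearly all actives have a fitted effect of over 50% in size; the assay follows cell death caused by Vpr and the record does not say whether a fall means rescue or toxicity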
#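 Fission yeast RE007 carrying one integrated HIV-1 vpr copy, seeded at OD 0.01 in PMG+AL medium with 23 nL pinned compound. Grown 24 h at 30 degrees; viability read by BacTiter-Glo luminescence after 5 min.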
# MARV entry inh: inhibitors of Marburg virus binding or cell entry; Marburg virus pseudotyped entry inhibition, cell reporter; control for the full effect not named in the record; about a third of the inactives were read at about 46 µM; Potency, µM (series often up to 37.8 µM), inactives show at the highest dose activity change, negative = inhibition, most hits filed as inhibitors; 300,000 compounds, 1.8% hits; active = well fitted inhibition curve with a large enough effect; inconclusive = small, poorly fitted or top-dose-only effect, or effect the other way; inactive = flat fitted curve, though single readings scatter; tested in HEK293 cells; about a fifth of its hits are not listed in these tables; note: % is set by controls: 0 for no effect and ±100 for the full control effect; luciferase read-out
# NS1 inh: blocks influenza NS1 protein function; S. cerevisiae slowed by influenza A NS1, growth recovery by OD600; Potency, µM (series often up to 46.1 µM), for inactives: at the top dose activity, positive = more growth; 270,000 compounds, 0.4% hits; AID 2326; active means well fitted rising curve with a large enough effect; inconclusive means small, poorly fitted or top-dose-only effect; inactive means no such curve, though single readings can be large or run the other way; note: nearly all actives have a fitted effect of over 50% in size
#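 A cell-based growth assay was used: compounds that relieve NS1-induced slow growth of budding yeast raise OD600. Assay medium was yeast nitrogen base with ammonium sulphate and -URA supplement, pH 6.0, with 2% galactose.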
# Cruzain inh Det: inhibitors of Trypanosoma cruzi cruzain with detergent. 200,000 compounds, 0.43% hits. P25779. Potency, µM, inactives show max response, negative = inhibition, hits mostly inhibitors. purified cruzain, Z-FR-AMC fluorescence, 0.01% Triton;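 note: plate controls were neutral wells for no effect and buffer without enzyme for full effect; nearly all actives have a fitted effect of over 40% in size; top concentration of the series not given in the record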
#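 In this qHTS format, compounds are incubated with 1.5 nM cruzain for 15 min at room temperature before 2 uM Z-FR-AMC is added. Release of AMC is followed at 360/450 nm, and progress is taken as the 60 s fluorescence difference.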
# SARS PLpro yeast: inhibitors of SARS-CoV papain-like protease in yeast; S. cerevisiae expressing SARS-CoV PLpro, growth rescue; control for the full effect not named in the record; Potency, µM (titrated, usually from 32.9 µM), for the others: top-dose activity, positive = growth rescue; 330,000 compounds, 0.19% hits; active means well fitted rising curve with a large enough effect; inconclusive means small, poorly fitted or top-dose-only effect; inactive means no such curve, though single readings can be large or run the other way; note: 0% is about no effect; nearly all actives have a fitted effect of over 55% in size; growth read by luminescence after 48 h
# The depositor's hits bear a star; ? = inconclusive; nt = no result given; [ ] = dose if it differs, or a comment. Unless noted, calls come from the whole dose curve; as a rule, active = well fitted curve in the direction sought with a large enough effect; inconclusive = small, poorly fitted or top-dose-only effect, or another doubt; inactive = no such curve, though single readings can be large; an effect the other way counts as inactive or inconclusive. Potency is the fitted concentration of half-maximal effect.
SMILES,StopGo reporter,LASV entry inh,Cruzain noTriton,RE007 growth inh,MARV entry inh,NS1 inh,Cruzain inh Det,SARS PLpro yeast
O=C(CCSc1ccc(Cl)cc1)N1CCOCC1,11%,0%,3%,1%,?,-11%,-0.2%,11%
Cc1ccc(C(=O)NC2CCN(C(=O)N3CCOCC3)CC2)cc1,1%,8%,9%,4%,7%,-3%,7.8%,-1%
CC(C)CNC(=S)N1CCC(Cc2ccccc2)CC1,-5%,?,nt,-10%,-14%[46.1 µM],-84%,nt,24%
CC(C)(C)OC(=O)N1CCCN(C(=O)Nc2ccc(OC(F)(F)F)cc2)CC1,-26%,-7%[46.1 µM],nt,-9%,-5%[46.1 µM],8%,nt,-2%
CC(C)[C@@H]1NC(=O)c2cc([N+](=O)[O-])cc(I)c2OCC[C@@H](C(N)=O)NC(=O)[C@H](CCC(=O)O)NC1=O,-12%,-7%,-9%,3%,-41%,8%,-2.1%,8%
CC(C)c1ccc(S(=O)(=O)Nc2ccc(O)c(Sc3ncn[nH]3)c2)cc1,-10%,nt,nt,-8%,nt,-2%,nt,3%
Cc1ccc(NC(=O)CSc2nc3ccccc3c(=O)n2CCC(=O)NC2CCCCC2)cc1C,0%,15%[46.1 µM],-12%,nt,nt,nt,6.0%,nt
CCCC(=O)Nc1ccc(NC(=O)c2sc3ccccc3c2Cl)cc1,0%,?,-8%,nt,nt,nt,0.1%,nt
CN(C)CCNC(=O)c1ccc2c(=O)n(Cc3ccc(Cl)cc3)c(=S)[nH]c2c1,-10%,?,nt,-7%,?,0%,nt,-2%
CCOC(=O)c1cccc(N/C=C/C(=O)c2ccc(OC)c(OC)c2)c1,0%,2%,?,-30%,?,-3%,-7.5%,-8%
CC(C)(O)CN(CCCNC(=S)Nc1ccccc1)C(=S)Nc1ccccc1,-5%,-21%,nt,-12%,-4%,nt,nt,nt
COc1ccc(NC(=O)CSc2nnc(C3CCCCC3)n2N)cc1OC,-15%,nt,nt,2%,nt,-2%,nt,2%
O=C(NCc1ccccc1Cl)c1cnc2sc(N3CCOCC3)nn2c1=O,-18%,25%[46.1 µM],-3%,nt,nt,nt,3.4%,nt
CC(C)COC(=O)c1ccccc1C(=O)OCC(C)C,0%,nt,-1%,-15%,nt,1%,1.4%,-1%
NC(=O)Cn1c(=O)n(CCC(=O)Nc2ccc(F)cc2)c(=O)c2sccc21,14%,nt,nt,5%,nt,2%,nt,0%
CCOc1ccc(CCNc2nc3c(-c4ccc(C)cc4)nnn3c3ccccc23)cc1OCC,-2%,18%[46.1 µM],10%,nt,?,nt,-0.8%,nt
CCN1CCCC1CN(Cc1cc2ccc(C)cc2[nH]c1=O)C(=S)Nc1ccc(F)cc1 (stereo not drawn),-17%,nt,nt,13%,nt,3%,nt,-1%
Cc1ccc(CNC(=S)N(C)C)cc1,1%,23%,nt,1%,0%[14.2 µM],1%,nt,-2%
Cc1ccc(C(=O)NNC(=S)NC(=O)c2ccc(Cl)cc2Cl)cc1,nt,?,?,-18%,-19%,-33%,-2.1%,28%
Cc1cn2c(=O)c(S(=O)(=O)Nc3ccc(N4CCOCC4)cc3)c(C)nc2s1,-23%,-4%[46.1 µM],6%,nt,nt,nt,-1.8%,nt
O=[N+]([O-])c1cc([N+](=O)[O-])c(Oc2ccc(F)cc2)cc1NN1CCCCC1,-8%,nt,nt,-2%,nt,-4%,nt,7%
O=C(NN1C(=O)C2C(c3ccccc3)C=CC(c3ccccc3)C2C1=O)c1ccccc1 (stereo not drawn),-20%,-5%,3%,10%,?,2%,-1.2%,2%
Cc1ccc(S(=O)(=O)N2CCN(CC(=O)N/N=C/c3ccccc3OCC(=O)O)CC2)cc1,-14%,0%,nt,-7%,-4%[46.1 µM],3%,nt,1%
COc1cc(S(=O)(=O)N2CCCCC2)ccc1NC(=O)c1ccc(F)cc1,19%,-25%,-2%,-17%,-7%,2%,-4.9%,-2%

# Some entries already given, reduced to Cruzain inh Det and LASV entry inh.
compound | Cruzain inh Det | LASV entry inh
Cc1ccc(CNC(=S)N(C)C)cc1 | nt | 23%
Cc1ccc(C(=O)NNC(=S)NC(=O)c2ccc(Cl)cc2Cl)cc1 | -2.1% | ?

# Next section.
SMILES,StopGo reporter,LASV entry inh,Cruzain noTriton,RE007 growth inh,MARV entry inh,NS1 inh,Cruzain inh Det,SARS PLpro yeast
CCOC(=O)N1CCC(NC(=O)Cc2cn(C)c3ccccc23)CC1,1%,2%,6%,19%,-2%,-5%,5.4%,nt
COc1ccccc1C(=O)Nc1cccc2cccnc12,17%,21%[46.1 µM],nt,3%,-1%[46.1 µM],-63%,nt,-20%
O=[N+]([O-])c1ccccc1SNc1ccccn1,-15%,1%,4%,-5%,?,0%,-2.1%,-4%
COc1ccc(C)cc1S(=O)(=O)N(C)CC(=O)N1CCN(c2ccccc2)CC1,0%,-18%[46.1 µM],nt,4%,?,-1%,nt,-1%
O=C(CCn1c(=O)[nH]c2ccsc2c1=O)N(CCc1ccccc1)Cc1ccccc1,-3%,-10%,22%,1%,-21%,10%,-1.1%,8%
Cc1c(NC(=O)CN2C(=O)NC(C)(c3ccccc3)C2=O)c(=O)n(-c2ccccc2)n1C (stereo not drawn),-10%,?,-12%,nt,?,20%,8.4%,-2%
CCOc1cc(S(=O)(=O)Nc2ccccn2)ccc1F,33%[activator],14%,0%,-9%,-19%,2%,-0.2%,2%
CCc1cc(=O)oc2cc(C)cc(OCC(=O)NCC3CCC(C(=O)O)CC3)c12 (stereo not drawn),-14%,nt,nt,-3%,nt,-7%,nt,-1%
COc1ccc(CCNC(=O)C2CCN(c3ccc(N4CCOCC4)nn3)CC2)c(OC)c1,0%,nt,3%,-18%,-4%,1%,0.9%,0%
CCn1c(SCC(=O)NNC(=O)c2ccc(OC)cc2)nnc1C(C)C,13%,nt,nt,14%,-24%[46.1 µM],-8%,nt,1%
O=C(c1ccccc1)n1nc(-c2ccccc2)nc1NCc1ccc(F)cc1,2%,-5%[46.1 µM],-4%,nt,13%[46.1 µM],nt,-1.7%,nt
CCOc1ccc(NC(=O)Cn2c(=O)n(CC3CCC(C(=O)NCCc4ccccc4)CC3)c(=O)c3ccccc32)cc1 (stereo not drawn),6%,2%[46.1 µM],3%,nt,-26%[46.1 µM],nt,-0.9%,nt
CCOCCCNC(=S)Nc1ccc2nc(N3CCOCC3)cc(C)c2c1,-20%,nt,nt,-13%,nt,3%,nt,1%
CCOc1ccc(/C=C/C(=O)c2c(O)cc(C)oc2=O)cc1,0%,-14%[46.1 µM],nt,-13%,-20%[46.1 µM],?,nt,7%
Cc1ccc(CNC(=O)c2oc3ccc(S(=O)(=O)N4CCC(C)CC4)cc3c2C)cc1,?,?,-19%,nt,?,nt,-4.6%,nt
OC1CCN(c2c3c(nc4cc(-c5ccc(F)cc5)nn24)CCC3)CC1,-5%,-16%,4%,-21%,-1%,-5%,2.3%,-5%
O=c1nc(NC2CCCC2)ccn1Cc1cccc(Br)c1,nt,20%,-13%,-2%,1%,-4%,6.1%,0%
CCN1/C(=C2\OC(=S)N(C)C2=O)C=Cc2ccccc21,-1%,17%[46.1 µM],nt,-7%,-4%[46.1 µM],nt,nt,-4%
COc1cc2nc(NCCC(C)C)n3nc(-c4ccccc4)nc3c2cc1OC,-14%,nt,-17%,nt,5%[46.1 µM],nt,0.9%,nt
CNc1nc(Cl)c(SC)c(N2CCOCC2)n1,-16%,3%[46.1 µM],nt,94%,8%[46.1 µM],nt,nt,2%
Cc1ccc(/C=C2\SC(=S)N(CCC(=O)N3CCCCC3)C2=O)cc1,5%,10%,nt,20%,-4%[46.1 µM],10%,nt,-2%
Nc1ccc(Br)c[n+]1Cc1cccc2cccnc12,-17%,-17%[46.1 µM],nt,2%,10µM*,-11%,nt,1%
Cc1ccc(/C=C(\NC(=O)c2ccccc2)C(=O)NC2CCN(Cc3ccccc3)CC2)o1,-20%,?,nt,-14%,-22%,12%,nt,6%
Cc1cc(C)nc(Nc2cccc(C(F)(F)F)c2)n1,-3%,nt,nt,-28%,nt,-10%,nt,-1%
CCOC(=O)C1CCCN(C(=O)COC(=O)c2cccs2)C1 (stereo not drawn),51%[activator],?,nt,-15%,11%,nt,nt,4%
COCCCNC(=O)CN1C(=O)CSc2ncccc21,-24%,nt,9%,-3%,-5%,16%,1.9%,3%
O=C(c1ccccc1)c1ccc(OC(=O)C2CCCCC2)cc1,1%,nt,nt,-5%,nt,-5%,nt,14%
CCc1cccc(NC(=O)CNC(=O)N2CC(=O)Nc3ccccc32)c1,-6%,nt,nt,3%,nt,-10%,nt,-2%
COc1nc(N(C)S(=O)(=O)c2ccc(C)cc2)nc(C)c1Br,-8%,nt,nt,1%,nt,19%,nt,6%
O=C(O)c1ccc(-c2nc(-c3ccccc3)cs2)cc1,-11%,-9%[46.1 µM],nt,-27%,14%[46.1 µM],nt,nt,-8%
Nn1c(-c2ccccc2)nc2cc(Cl)ccc2c1=O,-12%,29%[46.1 µM],nt,15%,7%[46.1 µM],-9%,nt,2%
O=C(c1ccc(Cl)c(Cl)c1)N1CCCC1,12%,1%,-3%,3%,4%,1%,-2.2%,0%
COc1ccc(C(=O)NCC(=O)NCC(=O)OCC(=O)c2cccs2)cc1,-12%,?,-8%,-18%,?,18%,-7.3%,13%
Cc1nc2ccccc2nc1OCc1cccc(Cl)c1,0%,17%,-4%,-1%,4%,-3%,-3.2%,5%
CC(=O)Nc1ccc(N(C(=O)c2ccco2)C(C(=O)NC2CCCC2)c2cccs2)cc1 (stereo not drawn),-1%,-31%,nt,15%,7%,nt,nt,3%
C/C(=C\c1cccs1)C(=O)c1c(C)cc(C)[nH]c1=O,44%[activator],nt,nt,12%,nt,-1%,nt,-2%
C[C@H](NC(=O)C1CCC(CNC(=O)[C@@H]2CCCN2C(=O)OC(C)(C)C)CC1)C(=O)O (stereo partly drawn),-16%,nt,nt,-2%,nt,4%,nt,-1%

# Screening results (PubChem)

# Compounds as they come. Share with any hit: about 4.6%.
